LYPLA2 inh = counter-screen for PME1 inhibitors: inhibitors of human LYPLA2; O95372; recombinant LYPLA2, FP-Rh probe fluorescence polarization; inhibition, % at 5.9 µM; 0.38% of 320,000 active;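 active means inhibition above the screen-wide mean plus 3 SD, limit set per campaign, cut at about 26% in these data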;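 further: 0% = LYPLA2 with DMSO and 100% = wells lacking LYPLA2 enzyme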
PAD4 FP inh = PAD4 (human) enzyme inhibition. Q9UM07. recombinant PAD4, RCA probe fluorescence polarization. inhibition, % at 6.36 µM. 0.41% of 330,000 active;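 active means percent inhibition above a cutoff equal to the mean of all tested compounds plus 3 SD, cut at about 15% in these data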;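 further: 0% = PAD4 with RCA probe and DMSO and 100% = probe without PAD4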
Target sequence (Q9UM07 whole entry, looked up): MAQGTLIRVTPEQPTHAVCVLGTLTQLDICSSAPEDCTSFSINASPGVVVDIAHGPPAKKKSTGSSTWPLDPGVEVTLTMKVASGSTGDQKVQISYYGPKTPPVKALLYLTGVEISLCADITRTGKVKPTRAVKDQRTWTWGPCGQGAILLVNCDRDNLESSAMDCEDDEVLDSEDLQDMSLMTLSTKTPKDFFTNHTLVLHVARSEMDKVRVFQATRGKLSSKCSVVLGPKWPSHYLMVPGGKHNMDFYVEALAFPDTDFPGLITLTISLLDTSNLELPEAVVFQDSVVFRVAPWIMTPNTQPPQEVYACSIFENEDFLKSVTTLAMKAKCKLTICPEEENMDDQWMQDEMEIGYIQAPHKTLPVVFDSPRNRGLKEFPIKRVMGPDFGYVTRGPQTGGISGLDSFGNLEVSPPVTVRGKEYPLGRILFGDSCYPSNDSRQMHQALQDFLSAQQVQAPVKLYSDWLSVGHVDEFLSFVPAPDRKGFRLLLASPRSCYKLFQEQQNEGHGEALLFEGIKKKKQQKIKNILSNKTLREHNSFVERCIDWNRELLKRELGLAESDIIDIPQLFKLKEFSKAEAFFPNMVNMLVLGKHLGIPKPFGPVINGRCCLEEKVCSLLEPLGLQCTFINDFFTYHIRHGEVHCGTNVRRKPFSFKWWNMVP
pPAFAH inh = pPAFAH (human) enzyme inhibition. Q13093. inhibition, % at 3.39 µM. AID 463082. recombinant pPAFAH, FP-rhodamine probe fluorescence polarization. 1.5% of 330,000 active;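 active means inhibition above the mean inhibition across the screen plus 3 SD, cut at about 25% in these data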;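 further: inhibitors block binding of the rhodamine activity-based probe so polarization drops; 0% = enzyme with DMSO and 100% = wells lacking pPAFAH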
PME-1 primary = blocks human protein phosphatase methylesterase 1 | AID 2130 | Q9Y570 | 0.53% of 320,000 active | inhibition, % at 5.9 µM | recombinant PME-1, FP-Rh probe fluorescence polarization;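 active means inhibition above the campaign mean of all compounds plus 3 SD, cut at about 26% in these data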;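 further: competitive labeling of PME-1 active site by serine hydrolase directed probe; 0% = PME-1 with DMSO and 100% = wells lacking PME-1 enzyme; inhibitors block probe labeling so polarization falls and inhibition rises; many of its hits are not listed in these tables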
GSTO1 counter = GSTO1 inhibition, counter-screen for RBBP9 inhibitors; P78417; recombinant GSTO1, activity-based probe fluorescence polarization; inhibition, % at 5.96 µM; 1.1% of 300,000 active; AID 1974;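 active means inhibition above the campaign mean inhibition plus 3 SD, cut at about 35% in these data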;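 further: 0% = GSTO1-1 with DMSO and 100% = wells lacking GSTO1-1 enzyme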
Target sequence (P78417 whole entry, looked up): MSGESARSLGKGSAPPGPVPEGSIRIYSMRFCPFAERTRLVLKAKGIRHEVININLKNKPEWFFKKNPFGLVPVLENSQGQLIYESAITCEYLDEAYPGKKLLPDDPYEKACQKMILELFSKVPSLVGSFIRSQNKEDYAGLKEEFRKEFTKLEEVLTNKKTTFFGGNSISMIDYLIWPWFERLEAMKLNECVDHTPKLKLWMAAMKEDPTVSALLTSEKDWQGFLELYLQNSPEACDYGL
LYPLA1 counter = LYPLA1 (human) inhibition in PME1 counter-screen; inhibition, % at 5.9 µM; AID 2174; recombinant LYPLA1, FP-Rh probe fluorescence polarization; 0.16% of 320,000 active; O75608;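 active means inhibition above the mean of all tested compounds plus 3 SD, set per campaign, cut at about 14% in these data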;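 further: inhibitors block serine hydrolase probe labeling of LYPLA1 so polarization falls; 0% = enzyme with DMSO and 100% = wells lacking LYPLA1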
PAFAH1B3 FP inh = inhibitors of human PAFAH1B3. Q15102. recombinant PAFAH1B3, FP-rhodamine probe, fluorescence polarization. inhibition, % at 3.39 µM. 0.28% of 340,000 active. AID 492972;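 active means inhibition above the screen-wide average of all tested compounds plus 3 SD, cut at about 25% in these data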;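 further: 0% = enzyme with DMSO only and 100% = wells lacking PAFAH1B3 protein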
PREPL inhibitor = human PREPL enzyme inhibition. inhibition, % at 5.96 µM. 0.68% of 320,000 active. recombinant PREPL, fluorescence polarization activity-based probe. Q4J6C6; in the data active means inhibition above about 43%;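 further: 0% = enzyme with DMSO and 100% = wells lacking enzyme; many of its hits are not listed in these tables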
The depositor's hits bear a star; x = not tested or not shown. Not all compounds are listed; the hit share may differ from the screen's.

SMILES | LYPLA2 inh | PAD4 FP inh | pPAFAH inh | PME-1 primary | GSTO1 counter | LYPLA1 counter | PAFAH1B3 FP inh | PREPL inhibitor
O=C(O)C1C2CCCCC2=C2CCCCC2C1C(=O)c1ccccc1 (configuration not stated) | 1 | 3 | -3 | -1 | 8 | -1 | 8 | -11
CSc1ccccc1C(=O)NCCSc1ccc(C)cc1 | 9 | 6 | 1 | 6 | 1 | 0 | 1 | 9
O=C(CCSc1ccc(Cl)cc1)N1CCOCC1 | 7 | -4 | 2 | -2 | 10 | 3 | 1 | 6
NC(=O)c1cc(S(=O)(=O)NCc2ccc(Br)cc2)cs1 | 1 | 0 | 2 | 5 | -1 | -2 | 1 | -7
CCc1ccc(CNn2cnnc2SCC(=O)NC(C)(C)C)cc1 | 11 | -7 | 1 | 2 | 3 | -2 | 4 | 16
O=C(NCc1ccccc1)c1cccc(COc2ccc(Cl)cc2)c1 | -16 | -4 | 0 | -12 | 0 | -16 | -3 | -6
CN(c1ccccc1)S(=O)(=O)c1cccc(NC(=O)CSc2nccc(=O)[nH]2)c1 | x | 3 | 0 | x | x | x | -1 | -1
CC(C)(C)c1ccc(S(=O)(=O)N2CCc3nc4ccccc4c(C(=O)O)c3C2)cc1 | -3 | 1 | 1 | 0 | -1 | -1 | 6 | 10
CS(=O)(=O)Nc1ccccc1C(=O)NCCSc1ccc(Cl)cc1 | x | x | x | x | x | x | 12 | x
O=C(NCc1ccccn1)C(=O)Nc1nc(C23CC4CC(CC(C4)C2)C3)cs1 | -3 | -2 | 7 | 0 | -6 | 2 | -7 | -3
Cc1ccc(S(=O)(=O)NNC(=O)c2sc(NS(=O)(=O)c3ccccc3)nc2C)cc1 | -3 | -5 | 2 | -1 | 10 | -4 | 12 | 11
O=C(NNS(=O)(=O)c1ccc([N+](=O)[O-])cc1)c1ccc2ccccc2c1O | x | x | x | x | x | x | 8 | x
Cc1ccc(SCCOCCN2CCOCC2)cc1 | 9 | 1 | 4 | -4 | 12 | 4 | -2 | -1
Cc1ccc(SCc2[nH]nc3c2C(C(C)C)C(C#N)=C(N)O3)cc1 (configuration not stated) | 3 | -5 | 3 | -6 | -8 | 2 | 6 | -12
O=C(CSc1ncn[nH]1)Nc1c(Br)cc([N+](=O)[O-])cc1Br | -7 | -3 | 6 | -4 | 1 | 4 | 1 | 0
CC(NC(=O)CCNC(=O)c1ccc(C(C)(C)C)cc1)c1ccccc1 (configuration not stated) | x | -3 | 6 | x | x | x | 11 | 4
N#Cc1c(NC(=O)CSc2nc3ccccc3s2)sc2c1CCCC2 | -14 | -1 | 4 | -7 | -1 | -9 | 2 | -8
CCNC(=O)c1ccc(CSc2ccc(Cl)cc2)cc1 | 9 | -1 | 3 | 3 | -3 | 0 | 5 | -9
COc1ccc(CCNS(=O)(=O)c2cc(C(=O)O)c(Cl)cc2Cl)cc1 | 3 | -3 | -2 | -2 | 12 | -1 | 10 | -6
CC(C)NC(=O)C(=O)NCCN1CCN(S(=O)(=O)c2ccc(Cl)cc2)CC1 | 3 | -3 | 2 | 3 | 7 | 2 | 10 | 3
CCCc1nnc(NC(=O)c2cccs2)s1 | -4 | 0 | 2 | -1 | 8 | -5 | 3 | 8
Cc1cc(C)cc(C(=O)NCC(=O)OCC(=O)N(C)c2ccccc2)c1 | -1 | -2 | 2 | -1 | 10 | 0 | 6 | -2
CSc1nc2c(c(=O)[nH]1)C(c1ccncc1)C(C(=O)OC(C)C)=C(C)N2 (configuration not stated) | 2 | -6 | -5 | -6 | -2 | 1 | 2 | 7
O=C(O)CCN1C(=O)c2ccc(NC(=O)CSc3ccc(Cl)cc3)cc2C1=O | 5 | 3 | 5 | -1 | 2 | 1 | 6 | 9
Cc1ccc(S(=O)(=O)N2[C@@H](c3ccc(F)cc3)C(C(=O)O)=CC[C@H]2c2ccc(Cl)cc2)cc1 | -10 | 2 | 4 | -2 | -150 | -5 | 1 | -11
NC(=O)C1CCCN(C(=O)CCc2nnc(C3(c4ccc(Cl)cc4)CCC3)o2)C1 (configuration not stated) | -2 | 0 | -2 | -2 | -1 | 0 | 1 | -3
O=C(Nc1nnc(Cc2ccc(Cl)cc2)s1)c1ccco1 | 1 | 0 | 11 | 4 | -2 | -1 | 14 | -17
N#C/C(=C/c1ccc(O)cc1)C(=O)NCc1ccc(Cl)cc1 | 4 | -2 | -6 | 4 | 2 | -6 | 1 | 5
CC(C)(C)c1ccc(OCCSc2nc3ccccc3n2CC(=O)O)cc1 | -1 | 0 | -1 | 1 | 4 | 0 | 16 | -13
O=c1[nH]c(C2CCCN(S(=O)(=O)c3ccc(F)cc3)C2)nc2c1nnn2Cc1ccccc1 (configuration not stated) | 1 | 1 | 8 | 22 | 7 | 1 | 8 | 4
CC(C)c1ccc(C(=O)N2CCCN(C(=O)c3ccc(C(C)C)cc3)CC2)cc1 | 7 | -3 | 3 | 2 | 1 | -1 | 7 | 9
O=C(O)C1Cn2c(nc3c(c2=O)C2(CCCC2)Cc2ccccc2-3)S1 (configuration not stated) | 6 | 1 | 4 | 7 | 2 | 5 | 10 | -4
O=C(CSCc1ccc(Cl)cc1)Nc1ccc(Br)cc1C(=O)O | -6 | 4 | 8 | -9 | -10 | -6 | 9 | -8
CCN(CC(=O)NCc1ccc(Cl)cc1)C(=O)c1cc2ccccc2o1 | -5 | -6 | 1 | 3 | 4 | -5 | 6 | -31
Cc1ccc(C(=O)NNC(=S)NC(=O)c2ccc(Cl)cc2Cl)cc1 | 6 | 3 | 7 | 1 | 0 | -1 | 18 | 15
S=C(NCC1(c2ccccc2)CCCC1)Nc1ccccc1 | -6 | -2 | 3 | 4 | -3 | 0 | 8 | -2
CC1CC(C)(C)CC2(C1)NC(=O)N(CC(=O)Nc1cc([N+](=O)[O-])ccc1F)C2=O (configuration not stated) | -5 | 1 | 3 | 5 | x | -2 | -6 | 33
Cc1ccc(SCc2cc(=O)n3[nH]cnc3n2)cc1 | 0 | 4 | -3 | -2 | 8 | 3 | 6 | -12
COc1ccccc1N(CC(=O)NCCSCc1ccc(Cl)cc1)S(C)(=O)=O | -8 | 0 | 8 | 0 | 2 | 1 | 1 | 2
Cc1c(C(=O)NCCSc2ccc(Cl)cc2)cccc1[N+](=O)[O-] | -6 | 1 | 5 | -2 | 2 | -4 | -2 | 25
CCOC(=O)CNC(=O)Cn1cnc2ccc(S(=O)(=O)N3CCC(C)CC3)cc2c1=O | -3 | 1 | 1 | -4 | -12 | -2 | 8 | 1
CC(NC(=O)CN1CCN(S(=O)(=O)c2ccc(Br)cc2)CC1)c1ccccc1 (configuration not stated) | -3 | 1 | 5 | 16 | 9 | -3 | 3 | -1
O=C1CS/C(=N/N=C2C3CC4CC(C3)CC2C4)N1 | -4 | -4 | 7 | -2 | 3 | 1 | -3 | -2
CCn1cc(C(=O)N2CCCCC2)c(=O)c2cc(S(=O)(=O)N3CCC(C)CC3)ccc21 | -7 | -1 | -5 | -5 | -6 | -3 | 3 | 11
O=C(CCNC(=O)C1CCN(S(=O)(=O)c2ccccc2)CC1)NCCc1ccc(Cl)cc1 | 5 | 4 | 4 | 17 | 1 | 0 | 4 | 28
CCC1(C)Cc2ccccc2-c2[nH]c(=S)[nH]c(=O)c21 (configuration not stated) | -3 | -2 | 5 | -3 | 1 | -2 | 9 | 2
C/C(=N\S(=O)(=O)c1ccc(C)cc1)NC(=S)Nc1ccccc1 | 5 | -3 | 4 | -5 | 20 | 1 | 4 | 10
Cc1ccc(S(=O)(=O)N2[C@@H](c3ccc(Cl)c(Cl)c3)C(C(=O)O)=C[C@H]2C(C)(C)C)cc1 | x | -3 | 8 | x | x | x | 5 | 8
NC(=O)c1nc(-c2ccccc2)c(-c2ccccc2)[nH]c1=O | 3 | -1 | 3 | 1 | 2 | 0 | 7 | 5
COc1ccc(NC(=S)NCCSc2ccc(Cl)cc2)c(OC)c1 | 2 | 1 | 9 | 6 | -5 | -1 | 4 | 15
CN(CC(=O)NCCc1ccc(S(N)(=O)=O)cc1)Cc1ccc(Cl)cc1Cl | 0 | -1 | 5 | 5 | -3 | -2 | 10 | -7
Clc1ccc(OCCSc2nnnn2C2CCCCC2)cc1 | -8 | -5 | 3 | 3 | 3 | -6 | 7 | 1
O=C(Cn1nnc(-c2cccc(C(F)(F)F)c2)n1)NNS(=O)(=O)c1cccc(C(F)(F)F)c1 | 3 | 3 | 1 | -4 | 5 | 1 | 10 | 0
CC(C)C1C(=O)NC(=S)N1S(=O)(=O)c1ccc(C(C)(C)C)cc1 (configuration not stated) | 7 | 4 | 8 | 0 | 0 | -1 | 13 | 6
O=C(O)c1ccccc1OC(=O)C12CC3CC(CC(C3)C1)C2 | -10 | -3 | -1 | 4 | -6 | 1 | 7 | -4
CCOC(=O)Cn1c(C)cc(=O)c2cccc(C)c21 | 8 | 4 | 4 | 10 | 0 | 0 | 3 | 14
NS(=O)(=O)c1cccc(NC(=O)COC(=O)C2(c3cccc(F)c3)CCCC2)c1 | -3 | -2 | 17 | -5 | 5 | -2 | -6 | -29
N#Cc1cc2c(nc1SCC(=O)Nc1sc3c(c1C#N)CCC3)CCCCCC2 | 1 | 7 | 6 | 0 | 15 | 3 | -7 | 15
CC(=O)Nc1c(O)nc(SCc2ccc(Cl)cc2)[nH]c1=O | 2 | 0 | 1 | -8 | 5 | -1 | 4 | -1
O=S1(=O)CCOC[C@H](c2ccccc2)N1Cc1ccccc1 | 4 | -3 | -4 | 0 | -1 | 4 | 12 | -13

In a second layout: results already given
Structure	LYPLA2 inh	PAD4 FP inh	pPAFAH inh	PME-1 primary	GSTO1 counter	LYPLA1 counter	PAFAH1B3 FP inh	PREPL inhibitor
N#Cc1c(NC(=O)CSc2nc3ccccc3s2)sc2c1CCCC2	-14	-1	4	-7	-1	-9	2	-8
CCNC(=O)c1ccc(CSc2ccc(Cl)cc2)cc1	9	-1	3	3	-3	0	5	-9
COc1ccc(CCNS(=O)(=O)c2cc(C(=O)O)c(Cl)cc2Cl)cc1	3	-3	-2	-2	12	-1	10	-6
CC(C)NC(=O)C(=O)NCCN1CCN(S(=O)(=O)c2ccc(Cl)cc2)CC1	3	-3	2	3	7	2	10	3
CCCc1nnc(NC(=O)c2cccs2)s1	-4	0	2	-1	8	-5	3	8
